# Assay outcomes as filed in PubChem.
# RanGTP-Imp inh – inhibitors of RanGTP-importin-beta interaction, primary screen, biochemical, FRET, CFP-Ran, YFP-importin-beta, homogeneous; hit rate 1.1% among 300,000; inhibition, % (no concentration beside the values); AID 2216; cell-free CFP-Ran/YFP-importin-beta FRET ratio;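 active means most replicates above 15%; inconclusive means exactly half above 15%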;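 further: 0% = DMSO wells and 100% = Ran loaded with GDP instead of GTP; wells of about 40 µL received 100 nL stock; the first replicate is given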
# Calb FLC – affects C. albicans growth with fluconazole; AID 1979; hit rate 0.57% among 300,000; C. albicans CaCi-2 (fluconazole-resistant clinical isolate) + fluconazole, Alamar Blue growth, 48 h; growth inhibition, % (concentration not given with the values);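 active means most replicates above 75%; inconclusive means exactly half above 75%; inactive means most below 75%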;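 further: all wells also contain fluconazole at 8 µg/ml as a sub-toxic cotreatment; 0% = median of DMSO wells and 100% = median of geldanamycin control wells; wells of about 8 µL received 7.5 nL stock; the first replicate is given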
# MLL AF4-AF9 inh – MLL-AF4/AF9 protein interaction inhibition; P42568; AlphaScreen, biotin-AF4 peptide binding to FLAG-AF9; inhibition, % at 10 µM; hit rate 0.47% among 350,000;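 active means every replicate reaching a set inhibition limit, whatever the replicate mean, cut at about 25% in these data; inconclusive means mean inhibition reaches that limit but some replicates miss it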;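 further: 0% = plate neutral control median and 100% = total signal loss; the record names both 10 and 1 µM as test concentration; the first replicate is given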
# Target sequence (P42568 whole entry, looked up): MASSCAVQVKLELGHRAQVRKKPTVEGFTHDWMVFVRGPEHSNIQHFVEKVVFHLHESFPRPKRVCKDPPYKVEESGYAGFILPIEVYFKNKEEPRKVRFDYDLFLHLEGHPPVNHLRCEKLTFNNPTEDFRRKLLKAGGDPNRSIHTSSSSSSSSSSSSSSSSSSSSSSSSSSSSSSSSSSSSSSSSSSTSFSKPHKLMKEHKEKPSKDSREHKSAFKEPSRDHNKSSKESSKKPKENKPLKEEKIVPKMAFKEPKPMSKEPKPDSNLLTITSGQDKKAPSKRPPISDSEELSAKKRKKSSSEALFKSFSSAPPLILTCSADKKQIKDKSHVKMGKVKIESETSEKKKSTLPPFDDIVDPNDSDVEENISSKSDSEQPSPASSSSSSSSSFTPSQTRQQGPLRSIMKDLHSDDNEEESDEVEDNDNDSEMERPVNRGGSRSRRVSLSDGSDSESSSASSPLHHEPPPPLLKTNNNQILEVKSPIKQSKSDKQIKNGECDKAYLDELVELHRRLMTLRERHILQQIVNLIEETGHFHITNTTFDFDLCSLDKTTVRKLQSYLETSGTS
# FGF22 binding – binders of recombinant human FGF22 by thermal shift. Q9HCT0. SYPRO orange fluorescence; percent of sucrose octasulfate shift, DMSO zero. calls only at 9.99 µM. hit rate 1.5% among 340,000;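 active means melting point raised past a set limit in the mean and every replicate; inconclusive means no clear call; three in four hits are not shown here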
# Target sequence (Q9HCT0 whole entry, looked up): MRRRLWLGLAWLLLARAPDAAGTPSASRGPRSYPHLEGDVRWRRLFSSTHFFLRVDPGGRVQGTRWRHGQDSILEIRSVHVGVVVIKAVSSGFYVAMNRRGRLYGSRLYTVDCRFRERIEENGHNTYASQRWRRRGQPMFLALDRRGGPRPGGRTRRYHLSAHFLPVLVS
# rRNA inh HTS – inhibitors of bacterial rRNA selective over humanized ribosomes. hit rate 1.6% among 350,000. E. coli WT GFP vs humanized-ribosome RFP mutants, fluorescence, 24 h; hits give low values; DMSO median 0, no signal -100. GFP signal change (wild-type ribosome), % (test concentration not listed). AID 720706;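 active means significant combined selectivity score with lowered wild-type GFP, culture density cut under 30%, mutant RFP and density less affected; inactive means any of these conditions unmet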; further: one replicate is shown; some compounds called inactive have numbers as strong as hits
# Beta apoptosis – beta cell apoptosis inhibition. protection from apoptosis, % (concentration not given with the values). AID 435005. INS-1E cytokine-induced death, ATP luminescence, 48 h; percent of positive-control rescue, neutral wells zero. hit rate 0.8% among 300,000;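 active means all replicates at 75% or more, or half of them and the mean; inconclusive means half reach 75% but not the mean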;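 further: 0% = cytokine-treated negative control wells and 100% = positive control rescue; higher means more ATP so stronger rescue from cytokine killing; wells of about 40 µL received 100 nL stock; the first replicate is given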
# ALR H2O2 inh – blocks human ALR sulfhydryl oxidase activity. P55789. purified ALR, DTT oxidation, H2O2 HRP-luminol luminescence. inhibition, % (test concentration not listed). hit rate 3.8% among 290,000;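 active means mean and each replicate at 75% or more; inconclusive means only one of the two met; inactive means neither met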;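 further: stock transfer was 7.5 nL into about 7.5 µL; 0% = neutral wells and 100% = wells with inactivated enzyme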
# Target sequence (P55789 whole entry, looked up): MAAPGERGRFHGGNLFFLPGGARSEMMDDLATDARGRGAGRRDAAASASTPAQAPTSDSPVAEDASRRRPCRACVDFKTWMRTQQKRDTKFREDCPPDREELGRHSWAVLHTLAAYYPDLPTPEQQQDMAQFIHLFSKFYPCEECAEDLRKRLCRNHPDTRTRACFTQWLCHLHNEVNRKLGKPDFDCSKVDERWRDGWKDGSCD
# T cruzi inh – blocks replication of Trypanosoma cruzi | T. cruzi beta-gal in NIH3T3, luminescence, 90 h | inhibition, % (test concentration not listed) | hit rate 1.4% among 300,000;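 active means mean inhibition across valid replicates above about 55%, limit read from the data; inconclusive means mean below that limit but half or more replicates reach it; inactive means mean below it, under half of replicates reach it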;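 further: signal also drops with host cell toxicity which is not excluded here; 0% = plate median of DMSO wells and 100% = zero luminescence signal; higher percent means less beta-gal luminescence so fewer parasites; stock transfer was 50 nL into about 50 µL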
# rRNA inh HTS OD600 – also measured in rRNA inh HTS; calls as there; OD600 change, %; measured here: OD600 growth;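 optical density of the mix in the first replicate; 0 = DMSO median and -100 = no signal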
# rRNA inh HTS RFP – further read-out of rRNA inh HTS, marked with its call; RFP signal change, %; measured here: RFP humanized mutant strains;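 first replicate; 0 = DMSO median and -100 = no signal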
# * = called active by the depositor; i = inactive; ? = inconclusive; nt = not tested or not shown. Not all compounds are listed, so the mix of outcomes need not match the whole.
entry	compound	RanGTP-Imp inh	Calb FLC	MLL AF4-AF9 inh	FGF22 binding	rRNA inh HTS
1	COc1ccc(C(=O)OCC(=O)N2CCN(C(=O)c3ccco3)CC2)cc1OC	nt	nt	-3.1	i	6.8
2	COc1cccc(CN(C(=O)Cc2c[nH]c3ccccc23)C(C(=O)NC2CCCCC2)c2cccs2)c1 (stereo not given)	0.2	29.5	nt	nt	nt
3	COc1ccc(CN(C)C(=O)c2cc(S(=O)(=O)Nc3ccccc3F)ccc2C)c(OC)c1	2.8	1.1	0.2	i	-18.4
4	Cc1cccc2cc(CN(Cc3cccs3)C3(c4nnnn4C4CCCC4)CCCC3)c(=O)[nH]c12	-1.7	-2.8	nt	nt	nt
5	O=C(/C=C/c1ccccc1)OCCN1C(=O)c2ccccc2C1=O	-1.5	-1.8	0.7	i	-9.8
6	CC(C)N(Cc1nccn1C)C(=O)c1cc(COc2cccc(C(F)(F)F)c2)on1	-1.4	8.1	2.7	i	-1.2
7	CCC(C)[C@H](NS(=O)(=O)c1ccc(C)cc1)C(=O)N1CCC(C(=O)N2CCC(C(N)=O)CC2)CC1 (stereo not given in full)	-1.7	-9.3	-2.5	i	22.9
8	Cc1cc(=O)n(C)c(=O)n1CCCCCOc1cccc([N+](=O)[O-])c1	-1.2	1.3	nt	nt	nt
9	Cc1ccc(/C=N/NC(=O)c2c[nH]c3ccccc23)o1	-2.9	4.6	nt	nt	6.8
10	O=C(c1ccccc1)C(O)c1ccccc1 (stereo not given)	nt	nt	nt	i	4.1

entry	rRNA inh HTS OD600	rRNA inh HTS RFP	Beta apoptosis	ALR H2O2 inh	T cruzi inh
1	10.0	1.3	-10.0	-3.4	nt
2	nt	nt	15.1	3.5	54.8*
3	-23.9	-2.1	nt	18.1	12.6
4	nt	nt	-6.0	-2.2	25.0
5	-20.8	0.8	-5.6	1.3	-1.9
6	0.1	1.1	-9.7	-42.2	7.6
7	12.9	14.9	-1.9	-5.1	8.1
8	nt	nt	-5.7	1.2	8.9
9	-1.0	-2.9	3.8	19.1	5.3
10	-0.6	-0.5	1.0	-13.4	nt

# Continuation:
entry	compound	RanGTP-Imp inh	Calb FLC	MLL AF4-AF9 inh	FGF22 binding	rRNA inh HTS
11	O=C1[C@@H]2[C@H](Cc3ccc(O)cc3)N[C@]3(C(=O)Nc4ccccc43)[C@@H]2C(=O)N1c1ccc(F)cc1	?	-3.0	-2.5	nt	nt
12	COc1ccc(N(C)S(=O)(=O)c2c(C)[nH]c(=O)[nH]c2=O)cc1	-3.2	-4.4	nt	nt	nt
13	O=C(OCc1c(F)cccc1Cl)c1cnccn1	-1.3	39.8	nt	nt	nt
14	O=C(c1ccc(CS(=O)(=O)c2c(Cl)cccc2Cl)o1)N1CCN(c2ccccn2)CC1	-1.1	-3.0	4.9	i	-6.4
15	CCC(C(=O)Nc1ccc(C(C)C)cc1)c1ccccc1 (stereo not given)	1.8	-23.5	-1.4	i	10.9
16	N=C1c2ccccc2CN1NC(=O)c1cccc(S(=O)(=O)N2CCCC2)c1	?	3.2	-0.3	i	16.9
17	COc1ccccc1C(NC(C)=O)c1c(O)ccc2ccc(O)cc12 (stereo not given)	0.9	-6.1	-1.3	i	3.9
18	COc1cccc(OCC(=O)O/N=C(\N)c2ccc(OC)c(OC)c2)c1	-3.0	-0.6	-13.2	i	-10.1
19	Cc1ccc(NC(=S)N/N=C/c2ccc(OCCC(C)C)cc2)c(C)c1	-1.5	?	nt	nt	nt
20	COc1ccc(Nc2ncnc3c2oc2ccccc23)cc1	?	11.7	nt	nt	nt

entry	rRNA inh HTS OD600	rRNA inh HTS RFP	Beta apoptosis	ALR H2O2 inh	T cruzi inh
11	nt	nt	-2.9	?	-9.6
12	nt	nt	1.1	-8.5	-13.1
13	nt	nt	-5.8	nt	-3.7
14	-9.0	-0.1	nt	-1.8	-6.9
15	14.4	-1.5	1.8	39.3	0.6
16	5.8	8.3	2.0	-1.2	-26.9
17	-1.6	6.1	-6.8	94.5*	10.3
18	9.0	1.1	-1.5	-7.7	6.9
19	nt	nt	-6.8	14.0	22.6
20	nt	nt	2.7	-2.0	-14.4

# (more compounds)
entry	compound	RanGTP-Imp inh	Calb FLC	MLL AF4-AF9 inh	FGF22 binding	rRNA inh HTS
21	Cc1ccc(NC(=O)c2cc3ccccc3cc2O)cc1	-1.9	-4.0	3.2	i	-28.9
22	COc1ccc(Cl)cc1-c1nc(-c2ccc(NC(=O)c3ccncc3)cc2)no1	2.9	5.8	nt	nt	nt
23	COC(=O)c1ccc(C(=O)OC)c(NC(=S)N2CCN(c3cccc(Cl)c3)CC2)c1	-0.1	-3.4	nt	nt	nt
24	C=CCNC(=O)CSc1nnc(C(CC)N(C)C)n1C1CCCCC1 (stereo not given)	0.1	-6.6	nt	i	7.7
25	CCOc1cc(C=O)ccc1OCC(=O)N1CCCC1	-1.3	-8.6	-1.3	i	16.6
26	CCCNC(=O)c1onc(CSc2ccc(Cl)cc2)c1C(=O)NCCOC	-1.0	-9.9	nt	nt	nt
27	CCOC(=O)C1(Cc2cccc(OC)c2)CCN(CC(O)CO)CC1 (stereo not given)	8.3	-5.4	-14.9	i	11.3
28	CCOc1ccc(N(CC(=O)Nc2ccccc2C(=O)NC(C)CC)S(C)(=O)=O)cc1 (stereo not given)	-3.4	-3.5	3.3	i	3.8
29	O=C(c1cc2c(s1)-c1ccccc1OC2)N1CCCC1	1.9	3.3	-0.1	i	-12.3
30	CCCn1c(SCC(=O)N2CCN(CC)CC2)nc2c1c(=O)n(C)c(=O)n2C	-0.8	-1.6	-0.1	i	16.4

entry	rRNA inh HTS OD600	rRNA inh HTS RFP	Beta apoptosis	ALR H2O2 inh	T cruzi inh
21	-27.4	-1.4	8.5	nt	-8.6
22	nt	nt	9.4	0.4	-3.6
23	nt	nt	-7.3	-6.7	3.0
24	7.3	-4.5	-4.2	-2.4	0.6
25	19.9	1.0	-3.6	-6.2	-7.4
26	nt	nt	1.4	-5.0	-5.9
27	6.7	-4.8	-0.5	-1.9	3.0
28	3.7	-5.8	1.1	-6.8	-2.6
29	-23.3	-5.1	-10.0	45.2	-6.5
30	18.1	1.8	-5.7	nt	-2.3

# (more compounds)
entry	compound	RanGTP-Imp inh	Calb FLC	MLL AF4-AF9 inh	FGF22 binding	rRNA inh HTS
31	COc1ccc(OC)c(/C(O)=C/C(=O)C(=O)Nc2cc(C)cc(C)c2)c1	7.8	-7.5	nt	nt	nt
32	O=C(NCC1COCCO1)c1cc(COc2ccc(F)cc2F)on1 (stereo not given)	3.2	7.9	nt	nt	nt
33	C/C(=C/c1ccccc1)C(=O)N1CCN(c2ccccc2)CC1	-1.3	0.5	2.2	i	-17.6
34	O=C(Cc1ccccc1)Nc1ccc2c(c1)OC1(CCCC1)O2	nt	nt	5.8	i	-18.0
35	Cc1cccc(OCc2nnc(SCC(=O)N3CC(=O)Nc4ccccc43)o2)c1	-1.9	5.2	2.2	i	-21.4
36	COc1ccc(CCNC(=O)C2CCN(C(=O)c3ccc([N+](=O)[O-])cc3)CC2)cc1	0.5	-5.3	-0.3	i	3.4
37	Cc1cc(NC(=O)c2cccc(S(=O)(=O)N3CC(c4ccccc4)CC3=O)c2)no1 (stereo not given)	-4.3	17.3	1.6	i	-11.2
38	Cn1c(Cn2c(=O)sc3ccccc32)nnc1SCC(=O)NCc1ccccc1	nt	nt	-3.3	i	15.8
39	CCCc1cc(=O)[nH]c(SCC(=O)Nc2sc3c(c2C#N)CCCC3)n1	1.4	53.1	-2.2	i	-54.6
40	Cc1cc(C)c2nc(SCCc3ccccc3)nc(C)c2c1	1.8	8.1	nt	nt	nt

entry	rRNA inh HTS OD600	rRNA inh HTS RFP	Beta apoptosis	ALR H2O2 inh	T cruzi inh
31	nt	nt	1.4	1.4	-1.5
32	nt	nt	nt	-8.0	-15.3
33	-16.6	-1.8	-2.6	44.0	-10.6
34	-26.7	-5.2	-2.9	-30.9	nt
35	-19.8	1.8	-0.4	-1.9	-16.6
36	3.9	-1.3	-2.0	-0.6	15.7
37	-18.1	1.4	3.0	-12.1	7.4
38	13.8	1.9	-1.7	-5.4	nt
39	-78.5	-17.1	-1.0	50.5	2.4
40	nt	nt	-4.9	-3.1	20.7

# The listing continues.
entry	compound	RanGTP-Imp inh	Calb FLC	MLL AF4-AF9 inh	FGF22 binding	rRNA inh HTS
41	O=C(NCC1CCCO1)C1CCCN1C(=O)NC1CCCCC1 (stereo not given)	1.4	-0.9	nt	nt	nt
42	COc1ccc(N2CCN(C(=O)C3CCCN(S(=O)(=O)c4ccc5c(c4)oc(=O)n5C)C3)CC2)cc1 (stereo not given)	-2.2	5.9	-4.2	i	1.1
43	COc1ccc(-c2nc(N)ncc2-c2ccc(Cl)cc2)c(O)c1	2.9	9.3	4.2	i	-4.3
44	Cc1cccc(NC(=S)NCC(c2cccnc2)N2CCOCC2)c1 (stereo not given)	10.3	-1.6	0.5	i	0.6
45	COc1ccc2c(C)c(Cl)c(=O)oc2c1	5.5	14.3	nt	nt	nt

entry	rRNA inh HTS OD600	rRNA inh HTS RFP	Beta apoptosis	ALR H2O2 inh	T cruzi inh
41	nt	nt	-9.9	nt	-2.2
42	3.2	0.4	15.3	-0.3	-2.2
43	-9.8	0.6	-12.6	2.3	21.4
44	3.1	-4.4	8.3	11.8	0.1
45	nt	nt	0.7	-2.9	1.0

# Of the compounds above, 7 have a Cl atom:
entry	compound	RanGTP-Imp inh	Calb FLC	MLL AF4-AF9 inh	FGF22 binding	rRNA inh HTS
13	O=C(OCc1c(F)cccc1Cl)c1cnccn1	-1.3	39.8	nt	nt	nt
14	O=C(c1ccc(CS(=O)(=O)c2c(Cl)cccc2Cl)o1)N1CCN(c2ccccn2)CC1	-1.1	-3.0	4.9	i	-6.4
22	COc1ccc(Cl)cc1-c1nc(-c2ccc(NC(=O)c3ccncc3)cc2)no1	2.9	5.8	nt	nt	nt
23	COC(=O)c1ccc(C(=O)OC)c(NC(=S)N2CCN(c3cccc(Cl)c3)CC2)c1	-0.1	-3.4	nt	nt	nt
26	CCCNC(=O)c1onc(CSc2ccc(Cl)cc2)c1C(=O)NCCOC	-1.0	-9.9	nt	nt	nt
43	COc1ccc(-c2nc(N)ncc2-c2ccc(Cl)cc2)c(O)c1	2.9	9.3	4.2	i	-4.3
45	COc1ccc2c(C)c(Cl)c(=O)oc2c1	5.5	14.3	nt	nt	nt

entry	rRNA inh HTS OD600	rRNA inh HTS RFP	Beta apoptosis	ALR H2O2 inh	T cruzi inh
13	nt	nt	-5.8	nt	-3.7
14	-9.0	-0.1	nt	-1.8	-6.9
22	nt	nt	9.4	0.4	-3.6
23	nt	nt	-7.3	-6.7	3.0
26	nt	nt	1.4	-5.0	-5.9
43	-9.8	0.6	-12.6	2.3	21.4
45	nt	nt	0.7	-2.9	1.0
